Mtb betalactam – beta-lactam sensitization of Mtb H37Rv; 330,000 tested, 0.27% active; M. tuberculosis H37Rv growth with meropenem, percent inhibition; hits of this screen are not shown here; inhibition, % at 25 µM;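 active means about 74% or more and at least 40 points above the plate without the antibiotic, then above 30% in a dose series; inconclusive means first-round hits that could not be retested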;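 further: growth measured after seven days incubation then overnight dye step; 0% = bacteria only wells and 100% = bacteria with antibiotic; twin plates without the antibiotic show which effects depend on it; some results filed as inactive read as strong as hits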
Mtb growth – M. tuberculosis H37Rv growth inhibitors, H37Rv strain (AID 1626). 220,000 tested, 0.95% active. M. tuberculosis H37Rv growth inhibition; higher % means a stronger effect. inhibition, % at 10 µM; hits with a dose series show IC50 in µM;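 active means confirmed in a dose series; inconclusive means inhibition above 80% but not taken into the dose series; inactive means below 80% or under 30% at every dose of the series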;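 further: bacteria incubated seven days before Alamar blue readout; 0% = bacteria only wells and 100% = bacteria with antibiotic wells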
YopH PTP inh – inhibitors of Yersinia enterocolitica YopH tyrosine phosphatase; 140,000 tested, 0.16% active; fluorescence Ex485/Em525; inhibition, %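 (about 10 µM by stock and volumes)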;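 active means inhibition of 50% or more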;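 further: controls were vehicle for no effect and minimum signal wells for full effect; inactives centre near -20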
RecA splice inh – inhibitors of M. tuberculosis RecA intein splicing | P9WHJ3 | cell-free RecA intein splicing, fluorescence | inhibition, %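 (about 9 µM by stock and volumes)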 | 290,000 tested, 0.75% active | AID 2221; in the data active means inhibition above about 30%; inconclusive means no clear call, values can overlap the other calls;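 further: 0% = vehicle wells and 100% = reference inhibitor control wells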
Target sequence (P9WHJ3 whole entry, looked up, canonical isoform): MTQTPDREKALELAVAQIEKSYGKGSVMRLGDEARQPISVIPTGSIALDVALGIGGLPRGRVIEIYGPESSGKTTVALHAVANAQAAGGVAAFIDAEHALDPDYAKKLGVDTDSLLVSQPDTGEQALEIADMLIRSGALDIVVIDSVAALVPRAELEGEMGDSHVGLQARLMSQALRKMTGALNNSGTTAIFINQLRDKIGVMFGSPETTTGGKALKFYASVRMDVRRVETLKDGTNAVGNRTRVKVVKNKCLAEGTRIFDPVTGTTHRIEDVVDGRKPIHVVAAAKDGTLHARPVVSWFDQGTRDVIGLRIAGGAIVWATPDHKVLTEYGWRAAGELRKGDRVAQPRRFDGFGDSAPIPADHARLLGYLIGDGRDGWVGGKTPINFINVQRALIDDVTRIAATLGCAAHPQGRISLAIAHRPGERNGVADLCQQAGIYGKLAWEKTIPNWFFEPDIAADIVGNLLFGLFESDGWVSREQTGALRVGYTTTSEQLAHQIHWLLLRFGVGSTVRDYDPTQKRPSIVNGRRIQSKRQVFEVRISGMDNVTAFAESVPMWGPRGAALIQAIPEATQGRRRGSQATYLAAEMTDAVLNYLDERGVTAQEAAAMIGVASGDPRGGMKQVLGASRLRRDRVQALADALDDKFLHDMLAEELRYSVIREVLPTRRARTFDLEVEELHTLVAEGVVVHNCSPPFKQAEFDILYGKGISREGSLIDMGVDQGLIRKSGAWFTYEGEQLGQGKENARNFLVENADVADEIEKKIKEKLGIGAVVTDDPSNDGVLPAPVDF
Arbovirus inh – blocks arbovirus infection | 200,000 tested, 0.37% active | AID 1251 | arbovirus infection cell-based antiviral screen | inhibition, % at 10 µM;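 active means inhibition from about 30%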;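 further: bluetongue infection of BSR cells; cell survival read as ATP light after 72 h; 0% = infected wells without compound and 100% = uninfected wells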
Arbovirus inh repeat – second read-out of Arbovirus inh, no call of its own (marks repeat the call); inhibition, %; measured here: 10K subset replicate screen; many hits read low in the repeat;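 first of two repeat runs on a subset; 0% = infected and 100% = uninfected wells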
* marks the source's active call; other numbers are inactive results; ? = inconclusive; . = no result given. A portion of the library; the hit share may differ from the screen's.

SMILES	Mtb betalactam	Mtb growth	YopH PTP inh	RecA splice inh	Arbovirus inh	others
COC(=O)C1C(c2ccc(N(C)C)cc2)C(C(=O)OC)S(=O)(=O)CS1(=O)=O (stereo not given)	-3	1%	.	1.5	0
CN(C1CCCC1)C1CCN(C(=S)Nc2cc(F)cc(F)c2)CC1	-3	.	.	-0.2	-13
COc1ccc(CSc2nnc(-c3ccncc3)n2N)cc1	-6	.	.	0.1	.
CCCCn1c(N)c(N(CCC(C)C)C(=O)CC2CCCC2)c(=O)[nH]c1=O	-1	.	.	-0.6	.
COCCOc1cc(N2C(=O)CSCC2=O)c(Cl)cc1Cl	3	-1%	-29	5.0	6
CCN(CCCNC(=O)c1c(C)cc(=O)oc1C)c1cccc(C)c1	-2	-1%	-21	.	7
O=C(/C(=N\Nc1ccccc1)Sc1nnnn1-c1ccccc1)c1ccccc1	8	10%	-25	-1.0	-12
CC(=O)Oc1ccccc1C(=O)N1CCN(S(=O)(=O)c2ccc3ccccc3c2)CC1	4	.	.	12	.
CC(C)c1cc(C(=O)NNC(=S)NC2CCCCC2)cs1	-4	.	.	4.4	.
O=C(Nc1cc(Cl)ccc1O)C1CC(c2c(F)cccc2Cl)=NO1 (stereo not given)	59	.	.	13	.
COC(=O)c1cc(C(=O)N2CCN(c3ccccc3OC)CC2)cc([N+](=O)[O-])c1	-5	.	.	-0.8	-11
CC(C)C(=O)Nc1nnc(SCC(=O)NCc2ccco2)s1	2	7%	-13	-4.6	1
Cc1cccc(C)c1NC(=O)N1C(C(=O)O)CSC1C(=O)O (stereo not given)	-3	-7%	-8	5.6	3
CCOC(=O)c1cn(CC)c2cc3c(cc2c1=O)OCO3	7	.	.	0.4	.
COCCNC(=O)c1cc(-c2ccccc2)n(CC2CC(c3ccc(OC)cc3)=NO2)n1 (stereo not given)	-10	.	.	-1.4	.
CC(C)CC(COCc1cccc(Cl)c1)N1CCN(C(=O)c2ccc(C(F)(F)F)cc2)CCC1=O (stereo not given)	-3	6%	-2	9.9	-25
CC(Oc1ccc(Cl)cc1)C(=O)NCCCn1ccnc1 (stereo not given)	2	0%	-31	-1.0	5
CN1CCN(c2ncnc3c2[nH]c2ccc(F)cc23)CC1	0	-6%	-53	.	17
Cc1ccc(C(=O)C2=C(O)C(=O)N(Cc3cccnc3)C2c2ccc(Cl)c(Cl)c2)o1 (stereo not given)	-7	.	.	-0.5	.
N#CC1=C(N)N(c2ccc(Cl)c(Cl)c2)C(=O)C1	79	67%	.	6.1	13
CC(C)OC(=O)C1C(=O)CC(C)(O)C(C(=O)OC(C)C)C1c1ccc(F)cc1 (stereo not given)	14	-4%	-8	19	9
COC(=O)c1cccc(C(=O)N2CCCC(C(=O)c3cc(F)ccc3F)C2)c1 (stereo not given)	2	-5%	.	-1.8	8
CN(CC(=O)Nc1cccc2ccccc12)C(=O)/C=C/c1cccs1	0	-1%	-12	-1.2	-1
Cc1ccc2c(c1)C1(C)C(C(C)(C)N2C=O)C1(Cl)Cl (stereo not given)	0	5%	.	5.0	.
CC(C)CCN(Cc1ccco1)S(=O)(=O)c1csc(C(N)=O)c1	0	.	.	-0.3	.
Cn1cccc1/C=N/NC(=O)c1cc2ccccc2cc1O	5	.	.	-33	.
COc1ccc(Cl)cc1NS(=O)(=O)c1ccc2c(c1)NC(=O)CCS2	3	.	.	-2.4	.
CCOC(=O)CSc1nc2c(c(=O)[nH]c(=O)n2C)n1CCc1ccccc1	20	1%	-22	0.5	10
CCC(=O)Nc1ccc(NC(=O)CSc2nnnn2-c2ccc(OC)cc2)cc1	3	.	.	0.6	.
N#CCCN1CCN(S(=O)(=O)c2ccc(S(=O)(=O)N3CCCC3)cc2)CC1	5	-7%	-21	0.5	-1	Arbovirus inh repeat=4
CC1(C(=O)O)CCC(C(=O)NNC(=O)c2ccccc2Cl)C1(C)C (stereo not given)	5	.	.	-2.1	.
COCCn1cnc2c1c(=O)n(CC(=O)Nc1cc(C)on1)c(=O)n2Cc1ccccc1	-5	-16%	-32	-1.0	6
CC(=C\C(=O)O)/C(=C/c1ccc(C)o1)C(=O)O	-4	-9%	-31	-7.0	1
CC(C)NCCCOc1ccc(Cl)cc1Br	-7	-3%	-23	1.1	-26
COCC(=O)Nc1cc([N+](=O)[O-])ccc1OC	4	-6%	-27	0.3	-1
O=C(NNC(=O)C1CCN(S(=O)(=O)c2ccccc2C(F)(F)F)CC1)c1ccccc1O	2	.	.	-1.0	.
CCCSc1nc(SCC(=O)NCc2ccccc2)c2c3c(sc2n1)COC(C)(C)C3	1	3%	7	-0.1	-17
N#Cc1ccc(C23CC4(C2)[C@H](CN(CC2CCCCC2)[C@@H]4c2ccccc2)C3c2ccc(Cl)nc2)cc1 (stereo not given in full)	-1	-3%	.	8.1	.
C=CCn1c(SC2CCOC2=O)nc2sc(CC)cc2c1=O (stereo not given)	-3	1%	20	1.7	1
Cc1c(C(=O)N(C)C)c2ccc(Cl)cc2n1O	-5	3%	-21	-6.2	9

Ordered by SMILES length (falling): part of the list above
SMILES	Mtb betalactam	Mtb growth	YopH PTP inh	RecA splice inh	Arbovirus inh	others
COC(=O)C1C(c2ccc(N(C)C)cc2)C(C(=O)OC)S(=O)(=O)CS1(=O)=O (stereo not given)	-3	1%	.	1.5	0
O=C(/C(=N\Nc1ccccc1)Sc1nnnn1-c1ccccc1)c1ccccc1	8	10%	-25	-1.0	-12
Cc1ccc2c(c1)C1(C)C(C(C)(C)N2C=O)C1(Cl)Cl (stereo not given)	0	5%	.	5.0	.

Structures from the list above that have four or more nitrogen atoms (ten):
SMILES	Mtb betalactam	Mtb growth	YopH PTP inh	RecA splice inh	Arbovirus inh	others
COc1ccc(CSc2nnc(-c3ccncc3)n2N)cc1	-6	.	.	0.1	.
CCCCn1c(N)c(N(CCC(C)C)C(=O)CC2CCCC2)c(=O)[nH]c1=O	-1	.	.	-0.6	.
O=C(/C(=N\Nc1ccccc1)Sc1nnnn1-c1ccccc1)c1ccccc1	8	10%	-25	-1.0	-12
CC(C)C(=O)Nc1nnc(SCC(=O)NCc2ccco2)s1	2	7%	-13	-4.6	1
COCCNC(=O)c1cc(-c2ccccc2)n(CC2CC(c3ccc(OC)cc3)=NO2)n1 (stereo not given)	-10	.	.	-1.4	.
CN1CCN(c2ncnc3c2[nH]c2ccc(F)cc23)CC1	0	-6%	-53	.	17
CCOC(=O)CSc1nc2c(c(=O)[nH]c(=O)n2C)n1CCc1ccccc1	20	1%	-22	0.5	10
CCC(=O)Nc1ccc(NC(=O)CSc2nnnn2-c2ccc(OC)cc2)cc1	3	.	.	0.6	.
N#CCCN1CCN(S(=O)(=O)c2ccc(S(=O)(=O)N3CCCC3)cc2)CC1	5	-7%	-21	0.5	-1	Arbovirus inh repeat=4
COCCn1cnc2c1c(=O)n(CC(=O)Nc1cc(C)on1)c(=O)n2Cc1ccccc1	-5	-16%	-32	-1.0	6

Continued.
SMILES	Mtb betalactam	Mtb growth	YopH PTP inh	RecA splice inh	Arbovirus inh	others
Cc1ccc2cc(C=O)c(N3CCOCC3)nc2c1C	91	.	.	-2.6	.
COc1ccc(OC)c2sc(NC(=O)CCSc3ccccc3)nc12	-1	10%	-45	-1.9	-9
COc1ccc(-n2c(NN)nc3sc4c(c3c2=O)CCCC4)cc1	6	9%	.	-2.2	-13
CCc1nc(Nc2ccccc2O)c2oc3ccccc3c2n1	14	.	.	-4.9	.
CCOC(=O)C(NC(=O)c1ccc(OC)cc1)(N1CCOCC1)C(F)(F)F (stereo not given)	?	8%	-26	-1.1	4
NC(=S)N/N=C/c1ccccc1[N+](=O)[O-]	3	3%	.	-5.2	0
CS(=O)(=O)N(CC(=O)N1CCCC1)c1ccc(Cl)cc1	4	.	.	0.5	.
O=c1/c(=C/c2ccco2)sc2n1CN(c1cccc(Br)c1)CN=2	-5	.	-18	-2.6	8
O=C(Nc1nnc(C(F)(F)F)s1)c1c(F)cccc1F	-1	-11%	.	-2.2	.
CN(C)/C=N/c1ncc(C(=O)c2ccc3ccccc3c2)s1	-16	-4%	-30	-2.3	-16
CCCN1CCC(=NNc2ccc(S(N)(=O)=O)cc2[N+](=O)[O-])CC1	2	-3%	.	-2.2	0
O=C(Nc1cc([N+](=O)[O-])ccc1O)c1cccc(C(=O)Nc2cc([N+](=O)[O-])ccc2O)c1	-4	.	.	1.1	.
O=C1NC(=O)C(=Cc2ccc(Oc3ccc([N+](=O)[O-])cc3)cc2)C(=O)N1	4	34%	.	68*	3
CCc1c(C)nc(N2CCN(c3cccc(OC)c3)CC2)[nH]c1=O	-4	.	.	0.3	.
CNC(=O)N1c2ccccc2CCc2ccccc21	-3	.	.	-0.2	.
CCCCn1c(N)c(N(CC(C)C)C(=O)c2ccc3c(c2)NC(=O)C(C)S3)c(=O)[nH]c1=O (stereo not given)	-5	.	.	-3.1	.
COc1ccccc1C(=O)NC(CCSC)C(=O)NCC(c1cccs1)N(C)C (stereo not given)	-12	.	.	0.9	.
O=C(NC1CC1)C1CCN(Cc2cnn(-c3ccccc3)c2-n2cccc2)CC1	0	-22%	-11	-1.1	2
Cc1cc(C)cc(OCc2nc(-c3cccnc3)no2)c1	2	2%	.	4.1	15
COc1ccc(COC(=O)Nc2cc3c(C(F)(F)F)nn(C)c3s2)cc1	4	1%	-25	9.5	2
Cc1cc(F)ccc1S(=O)(=O)Nc1ncnc2scc(-c3ccc(F)cc3)c12	4	6%	-26	-2.1	35*
O=C(NCN1C(=O)C2C3C=CC(C3)C2C1=O)Nc1ccccn1 (stereo not given)	2	1%	-24	-0.3	1
O=C(c1ccc(NC2=NC3CS(=O)(=O)CC3S2)cc1)N1CCN(c2ccccc2F)CC1 (stereo not given)	6	.	.	-3.0	.
CCCCSc1nc2c(c(=O)n1CC)SC(C)C2 (stereo not given)	6	14%	-6	6.4	-1	Arbovirus inh repeat=4
Cc1cc(/C=N/N2CCN(C)CC2)c(C)n1-c1ccc(Cl)cc1	-9	-9%	.	6.6	.
COc1ccccc1[C@@H]1C(c2cccc(Cl)c2)=NN(c2ccc(Br)cc2)[C@H]1C(=O)N1CCOC1=O	-7	-1%	-12	-19	-19
Clc1ccc2c(c1)C(C1=NCCN1)c1ccccc1CS2 (stereo not given)	1	4%	-13	6.0	11
O=[N+]([O-])c1ccc2nc(SCc3cn4cc(Cl)ccc4n3)[nH]c2c1	16	-3%	-24	-0.8	-7
COc1cc(C(=O)Oc2ccccc2N)cc(OC)c1OC	1	-2%	-19	1.1	-4	Arbovirus inh repeat=1
Cc1nc(NC(=O)CSc2nccn2C)sc1C(=O)N(C)C	-2	.	.	-0.5	.
CCCCOc1ccc(C(=O)N2CCN(c3ncccn3)CC2)cc1	2	.	.	0.2	.
Cc1c(NS(=O)(=O)c2ccc(N3CCN(C)CC3)c([N+](=O)[O-])c2)c(=O)n(-c2ccccc2)n1C	-6	-2%	.	-1.3	4
CC1CC(C)CN(C(=O)CSc2nnc(-c3ccc(Cl)s3)o2)C1 (stereo not given)	52	11%	-25	-2.2	-4	Arbovirus inh repeat=5
Cc1ccc(NC(=O)CSc2ncc3ccccn23)cc1C	2	-8%	.	0.3	6
Cc1cc(S(=O)(=O)N2CCOCC2)ccc1OCC(=O)N1CCCC1	-3	.	.	-0.6	.
NC(=O)c1ccc(-n2nnnc2SCC(=O)NC2CCCCC2)cc1	1	.	.	-1.2	.
Cc1csc(NC(=O)Cc2ccccc2[N+](=O)[O-])n1	-9	-2%	-10	-0.7	4
Cn1cc(Br)c(-c2cccc(N3C(=O)CCCC3=O)c2)n1	50	7%	.	4.0	.
FC(F)(F)c1nc(N2CCN(c3ccccc3)CC2)nc2c1CCCCC2	15	-6%	-38	2.5	1	Arbovirus inh repeat=-9
Cc1cccc(NC(=O)C2Cc3ccccc3O/C2=N\O)c1 (stereo not given)	0	.	.	-1.5	.
COc1c(Br)cc([N+](=O)[O-])c(OC)c1C(=O)NC(=O)Nc1c(Cl)cccc1Cl	-5	5%	.	0.7	.
CN1c2ccccc2C(O)=C(C(=S)Nc2ccccc2)S1(=O)=O	?	2%	-10	-2.2	17
CC(=O)Nc1ccc(N(C(=O)CNC(=O)c2ccco2)C(C(=O)NCc2ccco2)c2ccccc2F)cc1 (stereo not given)	2	-2%	.	0.0	2
N=C(N)c1ccc(/C=C/c2ccc(C(=N)N)cc2O)cc1	35	-1%	.	-12	.
Cc1cc(C)c2sc(NC(=O)CN3C(=O)CCC3=O)nc2c1	1	-12%	.	0.3	.
CCOC(=O)C1CCCN(c2c(NCCN(CC)c3ccccc3)c(=O)c2=O)C1 (stereo not given)	-12	5%	-19	-4.6	1
Cc1ccc(Nc2ncccc2C(=O)O)cc1C	1	10%	-22	1.0	11
CC1CC(C)CN(S(=O)(=O)c2ccc(C(=O)N3CCOCC3)cc2)C1 (stereo not given)	-11	.	.	-0.1	.
CCN(CC)CCNc1nc2cc(OC)c(OC)cc2c2nc(-c3ccccc3)nn12	100	75%	-13	-1.6	-42
